RE007 growth inh: less growth of the S. pombe RE007 Vpr strain; AID 651644; S. pombe RE007 Vpr strain, BacTiter-Glo ATP luminescence, 24 h; control for the full effect not named in the record; hit rate 0.21% among 360,000; Potency, µM (top dose mostly 92.2 µM), without a hit: at the top dose activity change, negative = less growth; active = well fitted falling curve with a large enough effect; inconclusive = small, poorly fitted or top-dose-only effect; inactive = no such curve, though single readings can be large or run the other way;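 also: % is scaled to controls: 0 for no effect and ±100 for the full control effect; nearly all actives have a fitted effect of over 50% in size; the assay follows cell death caused by Vpr and the record does not say whether a fall means rescue or toxicity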
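Fission yeast strain RE007, carrying one chromosomally integrated HIV-1 vpr copy, was seeded at OD 0.01 in PMG+AL medium with 23 nL pinned compound. After 24 h at 30 °C and 99% humidity, viability was read by BacTiter-Glo luminescence.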
StopGo reporter: FMDV 2A StopGo reporter, luciferase signal. hit rate 1.2% among 410,000. Potency, µM (highest dose often 57.9 µM), without a hit: at the highest dose signal change, negative = less light. human cells with a luciferase reporter of 2A StopGo recoding; control for the full effect not named in the record; active = well fitted falling curve with a large enough effect; inconclusive = small, poorly fitted or top-dose-only effect; inactive = no such curve, though single readings can be large or run the other way; tested in HEK293T cells; also: % is scaled to controls: 0 for no effect and ±100 for the full control effect; nearly all actives have a fitted effect of over 45% in size; luciferase light after 4 h
MARV entry inh: blocks Marburg virus binding to or entry into cells. hit rate 1.8% among 300,000. AID 540276. Potency, µM (top dose mostly 37.8 µM), for inactives: at the highest dose activity change, negative = inhibition, usual class: inhibitors. Marburg virus pseudotyped entry inhibition, cell reporter; control for the full effect not named in the record; about a third of the inactives were read at about 46 µM; active = well fitted inhibition curve with a large enough effect; inconclusive = small, poorly fitted or top-dose-only effect, or effect the other way; inactive = flat fitted curve, though single readings scatter; tested in HEK293 cells; about a fifth of its hits are not listed in these tables; also: % is scaled to controls: 0 for no effect and ±100 for the full control effect; luciferase read-out
NS1 function inh: blocks influenza NS1 protein function | AID 2326 | S. cerevisiae slowed by influenza A NS1, growth recovery by OD600 | hit rate 0.4% among 270,000 | Potency, µM (highest dose often 46.1 µM), for the others: at the top dose activity, positive = more growth; also: actives are rising curves; nearly all actives have a fitted effect of over 50% in size
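Recovery from NS1-induced slow growth read by OD600 in budding yeast switched to galactose assay medium (pH 6.0, -URA) at 1:100 dilution. Compound 23 nl per well; the matching strain lacking NS1 serves as control.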
SARS PLpro yeast: inhibitors of SARS-CoV papain-like protease in yeast; S. cerevisiae expressing SARS-CoV PLpro, growth rescue; control for the full effect not named in the record; Potency, µM (top dose mostly 32.9 µM), without a hit: at the highest dose activity, positive = growth rescue; hit rate 0.19% among 330,000; AID 485353; also: 0% is about no effect; nearly all actives have a fitted effect of over 55% in size; growth read by luminescence after 48 h
Cruzain noTriton: inhibitors of Trypanosoma cruzi cruzain without detergent. Potency, µM, inactives show max response, negative = inhibition, usual class: inhibitors. hit rate 2.3% among 200,000. P25779. purified cruzain, Z-FR-AMC fluorescence, no detergent; active = well fitted curve in the direction sought with a large enough effect; inconclusive = small, poorly fitted or top-dose-only effect, or another doubt; inactive = no such curve, though single readings can be large; an effect the other way counts as inactive or inconclusive;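 also: plate controls were enzyme without inhibitor for no effect and buffer without enzyme for full effect; nearly all actives have a fitted effect of over 40% in size; top concentration of the series not given in the record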
Target sequence (P25779 123-467 limits assumed): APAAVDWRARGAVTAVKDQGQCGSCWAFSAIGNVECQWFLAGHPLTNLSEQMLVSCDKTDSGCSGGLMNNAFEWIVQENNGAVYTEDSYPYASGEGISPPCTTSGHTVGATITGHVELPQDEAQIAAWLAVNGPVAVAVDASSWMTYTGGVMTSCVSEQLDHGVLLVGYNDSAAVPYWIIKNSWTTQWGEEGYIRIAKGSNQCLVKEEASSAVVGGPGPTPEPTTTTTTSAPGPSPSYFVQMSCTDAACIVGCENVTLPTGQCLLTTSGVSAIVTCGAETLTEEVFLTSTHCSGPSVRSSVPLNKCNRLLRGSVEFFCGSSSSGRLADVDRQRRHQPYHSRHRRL
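Purified cruzain at 1.5 nM, pre-incubated 15 min with compound at room temperature in 100 mM sodium acetate pH 5.5, 5 mM DTT, 0.00005% Triton X-100. Reaction started with 2 uM Z-FR-AMC; AMC fluorescence increase over 60 s gives rate.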
Cruzain inh Det: blocks cruzain activity in presence of Triton detergent; hit rate 0.43% among 200,000; P25779; Potency, µM, for the others: max response, negative = inhibition, actives largely listed as inhibitors; purified cruzain, Z-FR-AMC fluorescence, 0.01% Triton; AID 1478; active = well fitted curve in the direction sought with a large enough effect; inconclusive = small, poorly fitted or top-dose-only effect, or another doubt; inactive = no such curve, though single readings can be large; an effect the other way counts as inactive or inconclusive;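 also: plate controls were neutral wells for no effect and buffer without enzyme for full effect; nearly all actives have a fitted effect of over 40% in size; top concentration of the series not given in the record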
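15 min RT preincubation of 1.5 nM cruzain with compound, then 2 uM Z-FR-AMC added; kinetic AMC fluorescence, 60 s delta. Triton X-100 0.01%, pH 5.5.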
LASV entry inh: Lassa virus entry inhibition; Potency, µM (doses to about 37.9 µM), inactives show at the top dose activity change, negative = inhibition, hits mostly inhibitors; Lassa virus pseudotype entry inhibition, cell reporter; control for the full effect not named in the record; hit rate 1.2% among 300,000; active means well fitted inhibition curve with a large enough effect; inconclusive means small, poorly fitted or top-dose-only effect, or effect the other way; inactive means flat fitted curve, though single readings scatter; tested in HEK293 cells; also: % is scaled to controls: 0 for no effect and ±100 for the full control effect; nearly all actives have a fitted effect of over 50% in size; luciferase read-out
An asterisk follows results filed as active; ? = inconclusive; . = no result given; [ ] = another dose, or the depositor's remark. Unless noted, calls follow the shape of the dose curve; as a rule, active means well fitted rising curve with a large enough effect; inconclusive means small, poorly fitted or top-dose-only effect; inactive means no such curve, though single readings can be large or run the other way. Potency is read from the fitted curve at half-maximal effect.

SMILES | RE007 growth inh | StopGo reporter | MARV entry inh | NS1 function inh | SARS PLpro yeast | Cruzain noTriton | Cruzain inh Det | LASV entry inh
O=C(COc1ccc(Br)cc1)NNC(=O)c1cc(S(=O)(=O)N2CCOCC2)ccc1Cl | 4% | -26% | -6% | . | . | . | . | 1%
CCOC(=O)C1(CCOc2ccccc2)CCN(Cc2cccc(OCCO)c2)CC1 | -26% | ? | ? | -13% | -3% | . | . | -17%
COc1cccc(NC(=O)CC2C(=O)NC3CCCCC3N2C(=O)c2ccccc2)c1 (stereo not given) | -3% | -15% | 2%[46.1 µM] | . | . | . | . | -19%
O=C(CSc1ncn(-c2ccccc2)n1)c1cccs1 | -22% | 44%[activator] | ? | -35% | -5% | -7% | -4.3% | -8%
Cc1cccc(Cn2cc(C(=O)Nc3ccc(F)c(C(F)(F)F)c3)ccc2=O)c1 | . | ? | . | . | . | 14% | -10% | -23%[46.1 µM]
CN(C)c1ccc(C(=S)N2CCN(c3ccccc3)CC2)cc1 | -1% | -11% | 1% | -15% | 8% | -3% | -4.2% | -1%
CCCCNC1=NCCS1 | 1% | -3% | -9%[46.1 µM] | -1% | 4% | . | . | 16%
CC(C)C[C@H](NC(=O)N1CCn2c1nc1ccccc12)C(=O)NC1CC1 | -1% | -12% | . | 3% | -1% | . | . | .
COc1ccc(N2C(=O)NC(NC(=O)c3cccnc3)(C(F)(F)F)C2=O)cc1 (stereo not given) | 12% | -13% | . | -4% | 0% | . | . | .
COC(=O)C(C)NC(=O)C1CCCN1C(=O)CNC(=O)OCc1ccccc1 (stereo not given) | 3% | 10% | ? | 4% | 15% | . | . | 10%[46.1 µM]
CCN(CC)C(=O)c1cc2c(=O)n3cccc(C)c3nc2n1C | -9% | 10% | 5% | -11% | -6% | -12% | 1.6% | 10%
CC(C)OC(=O)C(CC(=O)O)NCc1ccccc1 (stereo not given) | 23% | -22% | 0% | -11% | -2% | 0% | -4.2% | 0%
CCOC(=O)c1c(C)[nH]c(N=Nc2ccc(OC)cc2)c1C | 2% | 19% | . | -49% | -3% | . | . | .
COc1cc(C)c(S(=O)(=O)N2CCN(C)CC2)cc1C | -8% | 30%[activator] | 7% | 1% | 1% | 9% | 3.6% | 8%
CCCc1nn2c(=O)cc(COc3ccc(/C=C(\C#N)C(=O)Nc4ccc(F)cc4)cc3)nc2s1 | . | 0% | -18%[46.1 µM] | . | . | -6% | 0.5% | 20%[46.1 µM]
CCC(C)(C)NC(=O)C(Sc1ccccc1)c1ccccc1 (stereo not given) | -8% | -12% | -23%[46.1 µM] | -6% | -2% | . | . | 2%
CC(C)=CCC/C(C)=C/C=N/NC(=O)c1ccc([N+](=O)[O-])cc1 | 6% | 7% | 1% | -7% | -5% | -20% | -1.9% | -1%
CCOc1cc(C2/C(=C(/O)c3ccc(OC)cc3)C(=O)C(=O)N2CC2CCCO2)ccc1O (stereo not given) | -6% | -9% | . | 9% | 0% | . | . | .
O=C(O)Cc1c(-c2ccccc2)c2cc(Cl)ccc2[nH]c1=O | 0% | -25% | ? | 0% | -2% | . | . | 12%[46.1 µM]
Nc1ccc(Cc2nc3c(ccc4ccccc43)[nH]2)cc1 | 15% | . | ? | 2% | -5% | ? | -3.7% | 1%
COc1cc2c(=O)c(-c3ccc(O)cc3)coc2cc1OC1OC(CO)C(O)C(O)C1O (stereo not given) | -7% | 22% | ? | 2% | 4% | -1% | -2.4% | 7%
O=C(O)c1nn(Cc2csc(-c3ccccc3)n2)c(=O)c2ccccc12 | -6% | -4% | ? | 0% | 16% | . | . | -18%
CCOc1cc(-c2noc(CCC(=O)NCC3CCCO3)n2)ccc1OC (stereo not given) | -9% | -4% | 12%[46.1 µM] | 19% | 0% | . | . | 5%[46.1 µM]
CCOC(=O)c1c(NC(=O)COC(=O)C2CCC2)sc(C(=O)N(C)C)c1C | 1% | -20% | 9% | . | -1% | . | . | 5%
CN1C(=O)C(C)(C)c2cc(S(=O)(=O)N3CCCC(C(=O)Nc4ccc(Cl)cc4)C3)ccc21 (stereo not given) | 8% | ? | . | -5% | -7% | . | . | .
CCN1C(=O)C(O)(CC(=O)/C=C/C=C/c2ccccc2)c2ccccc21 (stereo not given) | -4% | -12% | 6% | 10% | 2% | -1% | -12% | 5%
O=C1CSC(=S)N1N=Cc1ccc2c(c1)OCO2 | -6% | 11% | -1% | . | . | . | . | -2%
CCN(CC)c1nc2c(S(=O)(=O)c3ccccc3)nnn2c2ccc(Cl)cc12 | . | 11% | ? | . | . | -16% | -6.0% | .
CCc1cccc(C)c1NC(=O)Cn1c(=O)cc(C(F)(F)F)c2c(C)nn(C)c21 | . | -17% | . | . | . | -4% | -1.8% | -13%[46.1 µM]
O=C(NCc1ccccn1)c1nn(-c2ccccc2Cl)nc1CO | . | -11% | 0%[46.1 µM] | . | . | 2% | 1.4% | 27%[46.1 µM]
COc1ccc(/C=C/C(=O)NCCc2nc3ccccc3[nH]2)cc1 | -8% | 10% | 0%[14.2 µM] | 14% | 1% | . | . | 0%
O=C(Nc1ccc2[nH]c(=S)sc2c1)c1ccccc1 | 2% | 59%[activator] | 15% | -5% | -15% | 5% | -9.1% | 17%
O=C(c1ccco1)N1CCN(C(=S)Nc2cccc([N+](=O)[O-])c2)CC1 | -3% | ? | ? | 3% | 1% | . | . | ?
CCc1nc(Sc2nc(C)cc(C)n2)c2oc3ccccc3c2n1 | 8% | -30% | ? | -34% | -1% | 16% | -2.3% | -7%
COC(=O)c1nc2n(n1)C(c1cccc(Cl)c1)C1=C(CCCC1=O)N2 (stereo not given) | 14% | -10% | . | -2% | 0% | -2% | -4.7% | .
CCOC(=O)c1c(C)[nH]c(CCC(=O)NCCCN2CCN(c3ccc(F)cc3)CC2)c1C | . | ? | . | . | . | 4% | 4.2% | 16%[46.1 µM]
Cc1cccc(C2CC3(CC(C)(C)NC(=S)N3)Oc3cc(O)ccc32)c1 (stereo not given) | 8% | -12% | ? | -5% | 1% | . | . | ?
O=C(CC(c1cccs1)N1Cc2ccccc2C1=O)Nc1ccc(F)cc1F (stereo not given) | . | 24% | . | . | . | -16% | -5.8% | -20%[46.1 µM]
Cc1nc(N2CCCC2)c2ccsc2n1 | 0% | -18% | 17% | -30% | 1% | -10% | 3.5% | 4%
Cc1cc2c(cc1C)C(=O)NC(C)(C)C2 | 3% | 15% | 25% | -6% | . | -11% | 6.2% | -6%
O=C(Nc1cccc(C(F)(F)F)c1)/C(=C/c1ccco1)NC(=O)c1cccs1 | -15% | -21% | -5% | -9% | 1% | -8% | 0.2% | 0%
COc1cc(NC(=O)Nc2ccccc2OC)c(OC)cc1NC(=O)CN1CCCCC1 | -19% | -6% | ? | -16% | 0% | -5% | -5.5% | -10%
COc1ccc(N2C(=O)C3C(C2=O)C(C(=O)c2ccc(Cl)cc2)N2CCCC32)cc1 (stereo not given) | -28% | ? | ? | -7% | 1% | . | . | 8%
O=C(NCCOc1nc(N2CCCCC2)nc(N2CCCCC2)n1)Nc1ccccc1 | -1% | 10% | ? | 0% | 0% | . | . | -29%[46.1 µM]
COc1cccc(-c2nc3c(c(C)nn3-c3ccccc3)c3cc(OC)c(OC)cc23)c1 | . | -12% | . | . | . | -8% | -0.2% | -5%[46.1 µM]
CCc1ccccc1NC(=O)CN(C)C(=O)Cn1ncc(Cl)c(Cl)c1=O | -15% | 35µM* | ? | 3% | 13% | 4% | -1.0% | ?
Cn1cnnc1Sc1ccc(C(=O)OCC(=O)NC2CC2)cc1[N+](=O)[O-] | -2% | 4% | ? | . | 1% | . | . | 18%
COCCNC(=O)c1cccc(OC2CCN(Cc3ccc(C(C)C)cc3)CC2)c1 | -5% | -27% | ? | 1% | -2% | . | . | -11%[46.1 µM]
CCCC(=O)Nc1c(C)n[nH]c1C | 12% | 5% | 25% | 3% | -5% | -11% | 10% | 12%
O=C(CN1CCCCCC1)Nc1ccccc1F | 22% | -25% | 21% | -12% | -1% | -7% | -2.0% | 8%
Cc1cc(NC(=O)CN(c2cccc(C)c2C)S(=O)(=O)c2ccccc2)ccc1Br | . | ? | ? | . | . | 6.3µM* | -3.0% | ?
Cc1ccc(-c2nn(-c3ccccc3)cc2/C=N/NS(=O)(=O)c2ccccc2)cc1 | -7% | . | 4% | 15% | -8% | ? | 5.7% | ?
O=[N+]([O-])c1ccc(N2CCCC2)cc1N/N=C1\CN2CCC1CC2 | 3% | -23% | 10% | 14% | -16% | 25µM* | ? | -9%
CC(C)c1ccc(NC(=O)COc2ccccc2)cc1 | -21% | 56%[activator] | 3% | -27% | 0% | . | . | -11%
N#Cc1c(NC(=O)CSc2ncn(-c3ccccc3)n2)sc2c1CCCC2 | 24% | -11% | ? | -50% | -2% | ? | 2.3% | -11%
Cc1c(NC(=O)c2cc(-n3cnnc3)ccc2Cl)cccc1-c1nc2ccccc2o1 | -10% | -6% | -26% | -2%[9.22 µM] | 21% | 20% | -1.0% | -19%
COc1ccccc1NC(=O)CNC(=O)c1ccc(Br)o1 | 1% | -5% | . | -13% | 1% | . | . | .
CCOc1ccc(C(=O)NCC(=O)OCc2csc(-c3ccccc3)n2)cc1 | 3% | 18% | 5% | -12% | -24% | -2% | -18% | 8%
Cc1nnc(SCC(=O)NCc2ccc3c(c2)OCO3)[nH]c1=O | 2% | . | 5% | -13% | -5% | -1% | 2.0% | 14%
CN1CCN(C(=O)/C(=C\c2cccc([N+](=O)[O-])c2)NC(=O)c2cccs2)CC1 | 1% | -9% | 5% | 6% | 0% | . | . | -3%
c1ccc(OCCN2CCNCC2)cc1 | -5% | 11% | 10%[46.1 µM] | . | . | . | . | -1%[46.1 µM]
CCCOc1ccc(C2=NC(c3ccncc3)=Nc3ccc(C)cc3N2)cc1 | . | -6% | ? | . | . | -8% | -5.3% | 5%[46.1 µM]

Screening data as filed in PubChem.
